HNF4A DNA FP: change in binding of human HNF4 alpha to DNA; P41235; HNF4a-FITC DNA binding, fluorescence polarization, 1 h; activity change, % at 10 µM; actives 0.3% (n = 360,000); in the data active = activity change above about 30%, passing the limit was not always enough;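 note: controls were the assay level and a saturating level of protein; the project sought stronger binding though the title names inhibitors; some compounds called inactive have numbers as strong as hits; positive values seem to mean higher polarization but the record does not say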
Target sequence (P41235 whole entry, looked up): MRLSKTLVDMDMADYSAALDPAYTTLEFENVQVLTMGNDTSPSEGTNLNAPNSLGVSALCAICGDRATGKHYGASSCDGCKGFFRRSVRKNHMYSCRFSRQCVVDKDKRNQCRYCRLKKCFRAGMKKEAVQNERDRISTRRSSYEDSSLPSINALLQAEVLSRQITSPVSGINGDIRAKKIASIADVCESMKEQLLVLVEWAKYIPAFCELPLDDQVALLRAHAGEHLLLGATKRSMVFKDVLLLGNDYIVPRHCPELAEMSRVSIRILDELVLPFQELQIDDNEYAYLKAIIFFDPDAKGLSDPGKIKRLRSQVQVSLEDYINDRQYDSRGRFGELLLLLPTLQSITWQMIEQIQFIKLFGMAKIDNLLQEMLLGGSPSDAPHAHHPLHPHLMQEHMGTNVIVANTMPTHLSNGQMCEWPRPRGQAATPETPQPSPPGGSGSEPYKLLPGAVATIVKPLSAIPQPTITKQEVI
ALR H2O2 inh: inhibitors of human sulfhydryl oxidase ALR; P55789; purified ALR, DTT oxidation, H2O2 HRP-luminol luminescence; inhibition, % (no concentration beside the values); actives 3.8% (n = 290,000); AID 485317;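 active = mean and each replicate at 75% or more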;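 note: stock transfer was 7.5 nL into about 7.5 µL; 0% = neutral wells and 100% = wells with inactivated enzyme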
Target sequence (P55789 whole entry, looked up): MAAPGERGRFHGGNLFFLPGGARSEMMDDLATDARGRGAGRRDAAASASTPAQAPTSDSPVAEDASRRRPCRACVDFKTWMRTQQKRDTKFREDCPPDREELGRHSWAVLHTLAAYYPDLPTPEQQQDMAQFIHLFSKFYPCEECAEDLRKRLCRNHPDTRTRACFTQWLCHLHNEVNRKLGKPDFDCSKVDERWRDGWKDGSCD
Vif A3G: inhibitors of Vif binding to APOBEC3G peptide, primary screen, biochemical, TR-FRET, GST-Vif 1-94, biotin-A3G peptide, dose response retest (AID 1117319); TR-FRET GST-Vif / biotin-A3G peptide binding; higher % means a stronger effect; test concentration not given here; strong numbers were not always called active; inhibition, %; hits with a dose series show IC50 in µM; actives 0.57% (n = 260,000);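 active = above the screen mean plus three standard deviations and confirmed in dose response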;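 note: Vif residues 1-94 fused to GST binding biotinylated APOBEC3G peptide 110-148; 0% = full assay without inhibitor and 100% = GST in place of GST-Vif; retest series ran down from 100 µM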
rRNA inh HTS: selective bacterial rRNA inhibition in E. coli; E. coli WT GFP vs humanized-ribosome RFP mutants, fluorescence, 24 h; hits give low values; DMSO median 0, no signal -100; GFP signal change (wild-type ribosome), % (concentration not given with the values); actives 1.6% (n = 350,000); AID 720706;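 active = significant combined selectivity score with lowered wild-type GFP, culture density cut under 30%, mutant RFP and density less affected; inactive = any of these conditions unmet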; note: one replicate is shown; some compounds called inactive have numbers as strong as hits
E coli growth: E. coli growth inhibition; Escherichia coli growth, OD600, 23 h; hits give low values; OD600 absorbance (no concentration beside the values); actives 0.21% (n = 330,000); AID 1053175;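 active = OD600 absorbance below the run mean of sample wells minus 3.6 SD, in any replicate, cut at about 0.56 in these data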;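 note: stock transfer was 300 nL into about 60 µL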
MLL AF4-AF9 inh: MLL-AF4/AF9 protein interaction inhibition | inhibition, % at 10 µM | P42568 | AlphaScreen, biotin-AF4 peptide binding to FLAG-AF9 | actives 0.47% (n = 350,000);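 active = every replicate reaching a set inhibition limit, whatever the replicate mean, cut at about 25% in these data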;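 note: 0% = plate neutral control median and 100% = total signal loss; the record names both 10 and 1 µM as test concentration; the first replicate is given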
FGF22 binding: binders of recombinant human FGF22 by thermal shift; Q9HCT0; SYPRO orange fluorescence; percent of sucrose octasulfate shift, DMSO zero; calls only at 9.99 µM; actives 1.5% (n = 340,000); AID 651658;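 active = melting point raised past a set limit in the mean and every replicate; three in four hits are not shown here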
Target sequence (Q9HCT0 whole entry, looked up): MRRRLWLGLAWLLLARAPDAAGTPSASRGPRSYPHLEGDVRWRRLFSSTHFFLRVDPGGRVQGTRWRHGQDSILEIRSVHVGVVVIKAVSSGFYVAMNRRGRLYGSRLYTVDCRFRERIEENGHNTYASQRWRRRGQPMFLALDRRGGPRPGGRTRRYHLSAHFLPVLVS
rRNA inh HTS OD600: recorded beside rRNA inh HTS, whose call it bears; OD600 change, %; measured here: OD600 growth;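 optical density of the mix in the first replicate; 0 = DMSO median and -100 = no signal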
rRNA inh HTS RFP: recorded beside rRNA inh HTS, whose call it bears; RFP signal change, %; measured here: RFP humanized mutant strains;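 first replicate; 0 = DMSO median and -100 = no signal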
Starred values were filed as active, the others as inactive; i = inactive; · = no result given; & = joins results of further samples.

SMILES	HNF4A DNA FP	ALR H2O2 inh	Vif A3G	rRNA inh HTS	rRNA inh HTS OD600	rRNA inh HTS RFP	E coli growth	MLL AF4-AF9 inh	FGF22 binding
CC(C)NC(=O)N(C)C[C@@H]1Oc2ncc(C#Cc3ccccc3F)cc2C(=O)N([C@@H](C)CO)C[C@@H]1C	·	·	·	-2	-1	0.1	·	2.1	i
Cc1onc(-c2ccccc2)c1NC(=O)Nc1ccc(OC(F)F)cc1	-2.0	-2	·	-22*	2.9*	5.2*	0.64	-4.5	i
CCOc1ccc(NC(=O)CC(C)S(=O)(=O)c2ccc3c(c2)NC(=O)CO3)cc1 (stereo not drawn)	-5.4	-3	1%	0	-4	0.6	0.69	1.0	i
CCOc1ccc(-c2nnc3ccc(SCC(=O)Nc4cc(C)on4)nn23)cc1	-3.5	·	-33%	9	4	0.9	0.66	-2.2	·
COc1ccc(OC)c(NC(=O)c2ccc3c(c2)CCN3S(C)(=O)=O)c1	1.7	-11	·	-1	6	4.7	0.68	0.2	i
CC(C)OCCCNC(=O)Cc1ccc(Br)cc1	1.3	4	-8%	·	·	·	0.7	-1.4	i
Cc1ccc(CCN2C(=O)CCC2(C)C(=O)NCc2cccnc2)cc1 (stereo not drawn)	0.1	-9	6%	·	·	·	0.69	·	·
COc1ccccc1-c1cc(-c2ccc(O)cc2)nc(N)c1C#N	2.8	96*	·	-46	-60	0.4	0.65	-5.0	i
Cn1ncc2c(N3CCOCC3)ncnc21	0.7	-7	0%	·	·	·	0.69	·	·
COc1cc2c(c(OC)c1OC)C(c1ccc(O)cc1)CC(=O)O2 (stereo not drawn)	-2.6	·	·	-3	2	2.6	·	-2.4	i
COc1ccc(C(=O)C(C)N(C(=O)c2ccc(Cl)cc2Cl)N2C(=O)C3C4C=CC(C4)C3C2=O)cc1 (stereo not drawn)	-1.8	-5	3%	·	·	·	0.77	·	·
COc1ccc(N(Cc2cc3ccc(C)cc3[nH]c2=O)C(C)=O)cc1	-2.6	-4	27%	·	·	·	0.68	·	·
CCOC(=O)C1=C(O)C(=O)NC(c2ccccc2)=C(OC2CCCCC2)C1	2.2	·	0%	1	-1	13	0.72	0.8	i
Cn1c(SCc2nc3ccccc3[nH]2)nnc1-c1cnccn1	-4.2	-4	21%	·	·	·	0.67	·	·
CCCNC(=O)N1CC2(CN(S(=O)(=O)CC)C2)c2c([nH]c3cc(OC)ccc23)[C@H]1CO	·	·	·	0	4	-1.3	·	-4.3	i
S=C(Nc1cccnc1)NC1CCCCCCC1	0.2	7	·	·	·	·	0.67	·	·
Nc1ccccc1C(=O)C[C@H](N)C(=O)O	-1.7	·	·	·	·	·	·	-2.4	i
Cc1ccc(O)c(-c2cc(C(F)(F)C(F)F)nc(-c3ccccc3)n2)c1	0.2	-7	2%	·	·	·	0.77	·	·
CCOc1cc2[nH]c(=O)n(Cc3ccccc3)c(=O)c2cc1OCC	2.1	0	18%	·	·	·	0.73	·	·
Cc1ccc(S(=O)(=O)NCc2ccc(C(=O)N3CCN(c4ccccc4)CC3)cc2)cc1	0.8	6	4%	-33	-28	-4.6	0.64	-1.2	i
CCN(CC)S(=O)(=O)c1ccc(NC2CCN(Cc3ccccc3)CC2)nc1	1.1	-3	·	·	·	·	0.71	1.8	i
C[C@@H]1CN([C@H](C)CO)C(=O)c2cc(NC(=O)Nc3ccc(C(F)(F)F)cc3)ccc2O[C@H]1CN(C)C(=O)Nc1ccc(C(F)(F)F)cc1	·	·	·	1	-6	-2.5	·	-2.0	i
Cc1ccc(NC(=O)C(C)N2CCN(C)CC2)cc1S(=O)(=O)N1CCOCC1 (stereo not drawn)	0.8	1	-5%	0	0	-2.6	0.67	1.0	i
COc1cc(CN2CCC(Cc3ccccc3)CC2)cc(OC)c1OC	0.9	-8	·	6	5	4.7	0.68	5.6	i
Cc1ccc(S(=O)(=O)N2CCN(C(=O)c3cc4c(s3)CCCC4)CC2)c(C)c1	0.2	-2	-5%	·	·	·	0.68	-3.5	i
(cont.)
SMILES	HNF4A DNA FP	ALR H2O2 inh	Vif A3G	rRNA inh HTS	rRNA inh HTS OD600	rRNA inh HTS RFP	E coli growth	MLL AF4-AF9 inh	FGF22 binding
O=C(Nc1cccc(Cl)c1)Nc1nnc(-c2ccncc2)s1	-42	·	29%	-31	-36	-3.6	0.59	-0.5	i
COc1cc(OC)cc(C(=O)Nc2cccc(NC(=O)c3cccs3)c2)c1	-3.8	·	2%	-7	-23	6.3	·	-1.0	i
CCN(CC(=O)Nc1ccc(NC(C)=O)cc1)C(=O)c1cccc(N2C(=O)c3ccccc3C2=O)c1	-2.3	·	·	-3	4	-0.6	0.64	3.8	i
O=C1NCCN(Cc2cccc(Oc3ccccc3)c2)C1CC(=O)N1CCCCO1 (stereo not drawn)	2.1	-8	8%	-4	-11	-4.7	0.68	0.1	i
CCNC(=S)N/N=C/c1ccc(OCc2ccc(C(=O)OC)cc2)cc1	3.9	-8	-5%	·	·	·	·	·	·
CCCCN(CC)CCCNC(=O)c1cc2cc3ccc(OC)cc3nc2o1	-3.0	-5	-4%	·	·	·	0.67	·	·
CC(=O)N(C)C[C@@H]1[C@@H](c2ccc(-c3cccnc3)cc2)[C@H](CO)N1C(=O)C1CC1	·	·	·	-4	0	-6.2	·	-7.1	i
CCN1/C(=C/c2ccc3cc(C)ccc3[n+]2CC)Sc2ccc3sccc3c21	249	-1	·	·	·	·	0.33*	·	·
CCOC(=O)c1csc(NC(=O)CSc2nnc(C3CC3)n2C)n1	0.1	-4	2%	·	·	·	0.67	·	·
Cc1ccc(S(=O)(=O)NCC[C@@H]2CC[C@@H](NC(=O)NC(C)C)[C@@H](CO)O2)cc1	·	·	·	4	9	-0.4	·	-15	i
COc1ccc2[nH]c3c(c2c1)CCN1C(=O)N([C@@H](C)C(=O)NCC2CCCO2)C(=O)[C@]31C (stereo partly drawn)	4.2	·	·	·	·	·	0.75	2.0	i
NC(=O)C1CCN(C(=O)CCSc2ccccc2)CC1	-1.4	-5	-8%	·	·	·	0.72	·	·
Cc1cc(C)n2c3c(c(C#N)c2n1)CCCC3	-1.4	-10	29%	·	·	·	0.71	·	·
COc1ccc(C(=O)COC(=O)C(CCSC)NC(=O)COc2ccccc2)c(OC)c1 (stereo not drawn)	-0.2	0	-4%	-12	-6	0.9	0.73	1.3	i
COc1ccc(-c2cc(NC=O)c3ncc(-c4cccc(C(=O)N(C)C)c4)n3c2)cn1	-8.1	·	·	2	2	9.4	·	0.8	i
O=C(/C=C/Nc1cccc([N+](=O)[O-])c1)c1ccco1	-2.6	-3	·	·	·	·	0.68	·	·
COc1ccc(NC(=O)N[C@H]2C=C[C@@H](CC(=O)NC3CCC3)O[C@@H]2CO)cc1	-0.7	·	·	1&14	3&18	-4.3&4.8	·	1.4&-8.5	i
O=C(NC1CCCC1)c1cc(-c2ccccc2)on1	0.4	6	·	-3	-6	-2.9	0.66	10	i
COc1ccc(S(=O)(=O)N(C)C[C@@H]2OCCCC[C@H](C)Oc3ccc(NC(=O)Nc4ccc5c(c4)OCO5)cc3C(=O)N([C@H](C)CO)C[C@@H]2C)cc1	·	·	·	-1	2	-0.8	·	1.3	i
CCC(C)NC(=O)Cn1cnc2sc(C)c(S(=O)(=O)N3CCN(c4ncccn4)CC3)c2c1=O (stereo not drawn)	3.0	2	6%	8	13	2.8	0.64	1.1	i
COc1ccc(N(C(=O)c2cccnc2)S(=O)(=O)c2ccc3c(c2)n(C)c(=O)n3C)cc1	-0.3	-16	-7%	·	·	·	0.72	·	·
O=C(NC1CCCCC1)C(c1ccncc1)N(C(=O)c1csnn1)c1ccc(F)cc1 (stereo not drawn)	0.5	-1	·	4	10	0.2	0.61	-3.0	i
CSCCC(NC(N)=O)C(=O)Nc1cccc(C#N)c1 (stereo not drawn)	1.2	-13	·	23	17	7.2	0.65	-1.6	i
Cn1c(=O)cc(OCC(=O)N2CCCc3ccccc32)c2ccccc21	-0.4	-4	-121%	·	·	·	0.72	·	·
O=C(OCC(=O)c1ccc[nH]1)c1ccc(S(=O)(=O)C(F)F)cc1	1.0	·	·	-4	-6	3.0	·	2.7	i
Other entries follow.
SMILES	HNF4A DNA FP	ALR H2O2 inh	Vif A3G	rRNA inh HTS	rRNA inh HTS OD600	rRNA inh HTS RFP	E coli growth	MLL AF4-AF9 inh	FGF22 binding
O=C(CN1CCCc2ccccc21)NC(=O)NCc1ccco1	-7.4	48	10%	·	·	·	0.62	·	·
CC(OC(=O)CCc1cc(C(C)(C)C)c(O)c(C(C)(C)C)c1)C(=O)NC1CC1 (stereo not drawn)	-5.0	33	-4%	-8	-23	-1.3	0.65	-36	i
COc1ccc([N+](=O)[O-])cc1NC(=O)Cc1ccccc1Cl	-0.6	-8	10%	·	·	·	0.71	·	·
C=CCSc1nnc(CSc2nc3sc4c(c3c(=O)[nH]2)CCCC4)n1-c1ccccc1	-0.8	·	15%	·	·	·	0.73	·	·
O=C(CSc1nncc2ccccc12)Nc1ccc(C(=O)O)cc1	-0.2	100*	5%	8	6	-0.4	0.64	-2.2	i
COc1ccccc1C(=O)NNC(=O)C(=O)NCc1ccccc1	-3.4	-2	6%	-31	-41	-9.5	0.68	0.8	i
CC1CCN(c2ccc(S(=O)(=O)Nc3cc(C(=O)O)cc(C(=O)O)c3)cc2[N+](=O)[O-])CC1	·	-6	·	4	5	-1.9	0.73	-9.0	i
CC(C)(C)c1nc2scc(-c3ccc(Br)cc3)c2c(=O)o1	-0.7	-2	·	-13	-11	-0.4	0.7	-3.9	i
CN(C)CC(=O)N[C@@H]1CC[C@@H](CCNC(=O)Nc2ccc(F)cc2)O[C@@H]1CO	·	·	·	1	1	-4.2	·	7.3	i
CC1Cc2ccccc2N1C(=S)NC(=O)c1cccc(Br)c1 (stereo not drawn)	-1.1	·	7%	·	·	·	0.64	·	·
O=C(O)CC1=C(O)C(=O)N(c2ccccc2)C1c1ccc(Br)cc1 (stereo not drawn)	0.9	65	11%	·	·	·	0.77	·	·
O=C(CC12CC3CC(CC(C3)C1)C2)NC(=S)NCc1ccccc1	-2.0	-5	12%	·	·	·	0.72	·	·
CCOc1ccccc1Oc1c(C)oc2cc(OC(=O)N3CCOCC3)ccc2c1=O	-0.4	-36	-1%	-1	10	-3.4	0.73	5.7	i
COc1cc(OC)cc(C(=O)Nc2cccnc2)c1	-1.1	-20	7%	9	8	1.5	0.67	-0.3	i
O=S(=O)(c1ccc(NC(=S)NC23CC4CC(CC(C4)C2)C3)cc1)N1CCCCC1	-1.6	·	-7%	-1	2	3.4	·	1.2	i
Cc1c(C(=O)NCc2cccc(Cl)c2)sc(=O)n1Cc1ccc(F)cc1	-4.7	·	·	-14	-15	-12	·	-3.9	i
CSCCC(NC(=O)COc1ccccc1)C(=O)N1CCN(c2ccccc2F)CC1 (stereo not drawn)	-2.1	-2	-1%	·	·	·	0.67	·	·
COc1ccc(S(=O)(=O)Nc2cccc3c2O[C@@H](CN(C)S(=O)(=O)c2cccs2)[C@@H](C)CN([C@H](C)CO)C3=O)cc1	·	·	·	-6	-5	-0.6	·	-3.2	i
COc1cccc(S(=O)(=O)N(C)C[C@@H]2Oc3ncc(C#CCC(C)C)cc3C(=O)N([C@H](C)CO)C[C@H]2C)c1	·	·	·	1	-5	4.6	·	2.0	i

Entries from the list above containing a cyano group, in the order listed:
SMILES	HNF4A DNA FP	ALR H2O2 inh	Vif A3G	rRNA inh HTS	rRNA inh HTS OD600	rRNA inh HTS RFP	E coli growth	MLL AF4-AF9 inh	FGF22 binding
COc1ccccc1-c1cc(-c2ccc(O)cc2)nc(N)c1C#N	2.8	96*	·	-46	-60	0.4	0.65	-5.0	i
Cc1cc(C)n2c3c(c(C#N)c2n1)CCCC3	-1.4	-10	29%	·	·	·	0.71	·	·
CSCCC(NC(N)=O)C(=O)Nc1cccc(C#N)c1 (stereo not drawn)	1.2	-13	·	23	17	7.2	0.65	-1.6	i

These rows are one share of the data; rates above refer to the full screens.
